E coli growth = inhibitors of Escherichia coli growth; OD600, 23 h; hits give low values; OD600 absorbance (concentration not given with the values); 330,000 compounds, 0.21% hits; AID 1053175;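 active means OD600 absorbance below the run mean of sample wells minus 3.6 SD, in any replicate, cut at about 0.56 in these data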;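 further: stock transfer was 300 nL into about 60 µL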
HNF4A DNA FP = change in binding of human HNF4 alpha to DNA; P41235; HNF4a-FITC DNA binding, fluorescence polarization, 1 h; activity change, % at 10 µM; 360,000 compounds, 0.3% hits; AID 1224865; in the data active means activity change above about 30%, passing the limit was not always enough;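 further: controls were the assay level and a saturating level of protein; the project sought stronger binding though the title names inhibitors; some compounds called inactive have numbers as strong as hits; positive values seem to mean higher polarization but the record does not say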
Vif A3G = HIV-1 Vif–A3G interaction blockers – biochemical, TR-FRET, GST-Vif 1-94, biotin-A3G peptide, dose response retest, primary screen (AID 1117319); TR-FRET GST-Vif / biotin-A3G peptide binding; higher % means a stronger effect; test concentration not given here; strong numbers were not always called active; inhibition, %, or IC50 in µM where a hit was titrated; 260,000 compounds, 0.57% hits;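 active means above the screen mean plus three standard deviations and confirmed in dose response; inconclusive means results disagree or hit not tested in dose response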;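 further: Vif residues 1-94 fused to GST binding biotinylated APOBEC3G peptide 110-148; 0% = full assay without inhibitor and 100% = GST in place of GST-Vif; retest series ran down from 100 µM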
Ecoli rRNA inh = selective bacterial rRNA inhibition in E. coli; E. coli WT GFP vs humanized-ribosome RFP mutants, fluorescence, 24 h; hits give low values; DMSO median 0, no signal -100; GFP signal change (wild-type ribosome), % (test concentration not listed); 350,000 compounds, 1.6% hits; AID 720706;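 active means significant combined selectivity score with lowered wild-type GFP, culture density cut under 30%, mutant RFP and density less affected; inactive means any of these conditions unmet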; further: one replicate is shown; some compounds called inactive have numbers as strong as hits
FGF22 binding = FGF22 (human) thermal shift binding; recombinant FGF22 thermal shift, SYPRO orange fluorescence; percent of sucrose octasulfate shift, DMSO zero; calls only at 9.99 µM; 340,000 compounds, 1.5% hits;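 active means melting point raised past a set limit in the mean and every replicate; inconclusive means no clear call; three in four hits are not shown here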
Target sequence (Q9HCT0 whole entry, looked up): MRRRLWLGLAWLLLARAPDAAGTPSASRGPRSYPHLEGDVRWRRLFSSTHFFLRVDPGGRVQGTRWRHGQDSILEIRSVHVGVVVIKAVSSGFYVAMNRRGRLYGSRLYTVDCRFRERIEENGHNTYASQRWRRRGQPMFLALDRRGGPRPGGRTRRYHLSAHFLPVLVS
ALR inh = inhibitors of human sulfhydryl oxidase ALR; P55789; purified ALR, DTT oxidation, H2O2 HRP-luminol luminescence; inhibition, % (no concentration beside the values); 290,000 compounds, 3.8% hits; AID 485317;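 active means mean and each replicate at 75% or more; inconclusive means only one of the two met; inactive means neither met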;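 further: stock transfer was 7.5 nL into about 7.5 µL; 0% = neutral wells and 100% = wells with inactivated enzyme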
Target sequence (P55789 whole entry, looked up): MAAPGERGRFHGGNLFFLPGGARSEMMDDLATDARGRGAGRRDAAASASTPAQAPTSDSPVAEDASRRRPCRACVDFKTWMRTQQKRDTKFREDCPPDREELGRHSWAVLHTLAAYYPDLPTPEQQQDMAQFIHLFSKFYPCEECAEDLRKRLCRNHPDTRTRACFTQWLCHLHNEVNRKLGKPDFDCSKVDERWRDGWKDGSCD
MLL AF4-AF9 inh = MLL-AF4/AF9 protein interaction inhibition. P42568. AlphaScreen, biotin-AF4 peptide binding to FLAG-AF9. inhibition, % at 10 µM. 350,000 compounds, 0.47% hits. AID 651704;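 active means every replicate reaching a set inhibition limit, whatever the replicate mean, cut at about 25% in these data; inconclusive means mean inhibition reaches that limit but some replicates miss it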;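 further: 0% = plate neutral control median and 100% = total signal loss; the record names both 10 and 1 µM as test concentration; the first replicate is given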
Target sequence (P42568 whole entry, looked up): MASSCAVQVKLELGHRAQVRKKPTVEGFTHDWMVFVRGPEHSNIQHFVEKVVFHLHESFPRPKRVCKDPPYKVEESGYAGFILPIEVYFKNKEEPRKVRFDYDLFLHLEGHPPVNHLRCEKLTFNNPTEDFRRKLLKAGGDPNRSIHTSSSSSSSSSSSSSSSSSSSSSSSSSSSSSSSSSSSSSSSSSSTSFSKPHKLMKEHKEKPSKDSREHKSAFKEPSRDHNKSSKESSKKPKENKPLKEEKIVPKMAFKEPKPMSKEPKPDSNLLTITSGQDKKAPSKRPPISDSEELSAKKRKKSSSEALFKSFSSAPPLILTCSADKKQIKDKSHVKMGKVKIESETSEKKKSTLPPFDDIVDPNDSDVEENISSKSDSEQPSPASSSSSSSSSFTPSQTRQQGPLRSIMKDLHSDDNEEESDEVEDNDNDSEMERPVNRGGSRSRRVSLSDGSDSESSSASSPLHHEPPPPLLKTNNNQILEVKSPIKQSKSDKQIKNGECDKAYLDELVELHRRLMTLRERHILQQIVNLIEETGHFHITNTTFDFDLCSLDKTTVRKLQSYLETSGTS
Ecoli rRNA inh OD600 = recorded beside Ecoli rRNA inh, whose call it bears; OD600 change, %; measured here: OD600 growth;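 optical density of the mix in the first replicate; 0 = DMSO median and -100 = no signal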
Ecoli rRNA inh RFP = second read-out of Ecoli rRNA inh, no call of its own (marks repeat the call); RFP signal change, %; measured here: RFP humanized mutant strains;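 first replicate; 0 = DMSO median and -100 = no signal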
Numbers without * were called inactive; i = inactive; ? = inconclusive; . = no result given; & = joins results of further samples.

SMILES | E coli growth | HNF4A DNA FP | Vif A3G | Ecoli rRNA inh | Ecoli rRNA inh OD600 | Ecoli rRNA inh RFP | FGF22 binding | ALR inh | MLL AF4-AF9 inh
COc1ccc(C(=O)CC(=O)C(=O)Nc2ccc(Cl)cc2)cc1 | 0.63 | 1.9 | . | -15 | -2 | 10 | i | -3 | -0.1
O=C(COC(=O)COc1ccc(Cl)cc1Cl)NC1CCCCCC1 | 0.69 | -0.1 | 72% | 0 | -2 | -2.1 | i | -4 | ?
COc1ccc(CCN(C)CCCC(C#N)(c2cc(OC)c(OC)c(OC)c2)C(C)C)cc1OC (centres undefined) | 0.7 | -0.9 | ? | 6 | 12 | 0.1 | i | . | 2.3
C[C@@H]1CN([C@@H](C)CO)C(=O)CCCn2nncc2CO[C@@H]1CN(C)Cc1ccc(C(F)(F)F)cc1 | . | . | . | -6 | 2 | 1.4 | i | . | 2.0
CCN(CC)S(=O)(=O)c1ccc(N2CCOCC2)c(NC(=O)CC2OC(=O)c3ccccc32)c1 (centres undefined) | 0.66 | -0.3 | 10% | 0 | 0 | -0.9 | i | -1 | 7.0
CCOC(=O)C1CCN(C(=O)C(C)Sc2nnc3ccccn23)CC1 (centres undefined) | 0.68 | -0.2 | 1% | 1 | -1 | -1.1 | i | -1 | -1.9
Cc1[nH]n(-c2ccccc2)c(=O)c1/C=N/c1ccccn1 | . | 0.4 | 4% | . | . | . | . | 3 | .
Cc1noc(C)c1S(=O)(=O)N1CCCc2nc(-c3ccc(Br)cc3)ccc21 | . | . | . | 20 | 13 | 1.6 | . | . | -8.7
COc1ccc(NC(=O)N(C)C[C@H]2Oc3ccc(NC(=O)CCCCCC(=O)Nc4ccccc4N)cc3CC(=O)N([C@H](C)CO)C[C@@H]2C)cc1 | . | . | . | -5 | -2 | 0.2 | i | . | 2.5
CC(C)CC#Cc1cnc2c(c1)C(=O)N([C@@H](C)CO)C[C@@H](C)[C@H](CN(C)S(C)(=O)=O)O2 | . | . | . | -3 | -3 | 0.8 | i | . | -2.1
C[C@H](CO)N1C[C@H](C)[C@H](CN(C)C(=O)NC2CCCCC2)Oc2ccc(NS(=O)(=O)c3cccs3)cc2C1=O | . | . | . | -2 | -6 | -0.7 | i | . | -0.2
CCc1csc(CNC(=O)C2CCC(=O)N(Cc3cccc(OC)c3)C2)n1 (centres undefined) | . | -0.7 | . | 14 | 16 | 2.1 | i | . | -2.8
Cc1cc(Cn2nc(-c3ccccc3C)cc2C(=O)O)on1 | 0.71 | -2.4 | . | 0 | 4 | -2.4 | i | 3 | 0.5
COc1ccc(CN2CCN(C(=O)c3ccc(S(=O)(=O)N4CCCCCC4)cc3)CC2)cc1 | 0.7 | -1.1 | 1% | 4 | 5 | -1.7 | i | . | 12
O=C(CSc1nnc(-c2c[nH]c3ccccc23)o1)N(Cc1ccccc1)c1ccc(F)cc1 | 0.75 | -1.8 | 13% | . | . | . | . | -2 | .
CN(Cc1nccs1)C(=O)CC1C(=O)NCCN1Cc1ccc(-c2ccccc2)cc1 (centres undefined) | 0.69 | 0.1 | -5% | 4 | -1 | 1.6 | i | -15 | 2.7
O=C(COc1ccccc1F)NNC(=O)c1cccc(-n2cccc2)c1 | 0.71 | 1.9 | . | -44* | -18* | 11* | i | -3 | -5.5
Cc1ccccc1C(=O)N1CCC(C(=O)N2CCCc3ccccc32)CC1 | 0.67 | 0.2 | -2% | -4 | -7 | -4.9 | i | -7 | 0.2
CSc1nccc(N2CCN(c3ccc(F)cc3)CC2)n1 | 0.7 | 0.5 | . | -24 | -31 | -8.9 | . | ? | 5.8
O=[N+]([O-])c1ccc(C2CCCC/C2=N\OCc2cccc(F)c2)c([N+](=O)[O-])c1 (centres undefined) | . | -0.8 | 8% | . | . | . | . | 0 | .
CC[C@]12c3[nH]c4cc(CCC(=O)N(C)C)ccc4c3CCN1C(=O)[C@@H](CC(=O)NC(C)(C)C)C[C@@H]2C(=O)N1CCN(C(=O)c2ccco2)CC1 | 0.68 | -2.7 | 1% | 15 | 22 | -1.3 | i | . | -0.8
Cc1ccnc(NC(=O)CCC(=O)N(CC(=O)NCc2ccccc2)Cc2ccc(F)cc2)c1 | 0.71 | 4.0 | . | 4 | 13 | 1.5 | i | -7 | -0.6
Cc1ccc(C(=O)CC2(O)C(=O)N(Cc3ccccc3Cl)c3ccccc32)o1 (centres undefined) | 0.75 | -0.4 | -3% | . | . | . | . | -13 | .
Cc1noc(C)c1S(=O)(=O)N(C)C[C@@H]1OCc2ccccc2-c2ccccc2C(=O)N([C@H](C)CO)C[C@H]1C | . | . | . | -1 | -1 | -0.2 | i | . | -4.9

Record cards, from the list above. Screens in order: E coli growth, HNF4A DNA FP, Vif A3G, Ecoli rRNA inh, Ecoli rRNA inh OD600, Ecoli rRNA inh RFP, FGF22 binding, ALR inh, MLL AF4-AF9 inh
COc1ccc(CN2CCN(C(=O)c3ccc(S(=O)(=O)N4CCCCCC4)cc3)CC2)cc1 in the list: 0.7, -1.1, 1%, 4, 5, -1.7, i, ., 12
CC[C@]12c3[nH]c4cc(CCC(=O)N(C)C)ccc4c3CCN1C(=O)[C@@H](CC(=O)NC(C)(C)C)C[C@@H]2C(=O)N1CCN(C(=O)c2ccco2)CC1 in the list: 0.68, -2.7, 1%, 15, 22, -1.3, i, ., -0.8
O=C(CSc1nnc(-c2c[nH]c3ccccc23)o1)N(Cc1ccccc1)c1ccc(F)cc1 in the list: 0.75, -1.8, 13%, ., ., ., ., -2, .

(continued)
SMILES | E coli growth | HNF4A DNA FP | Vif A3G | Ecoli rRNA inh | Ecoli rRNA inh OD600 | Ecoli rRNA inh RFP | FGF22 binding | ALR inh | MLL AF4-AF9 inh
CS(=O)(=O)N(CC(=O)Nc1cccc([N+](=O)[O-])c1)c1ccccc1 | 0.63 | -5.0 | 8% | -7 | -7 | -12 | i | -19 | 5.1
CCOc1ccccc1-c1nc(-c2ccc(NC(=O)Cc3ccccc3OC)cc2)no1 | 0.75 | 0.1 | -7% | . | . | . | . | -18 | .
N#CC/C(N)=N/NC(=O)CCCNc1ncc(C(F)(F)F)cc1Cl | 0.67 | 4.9 | -4% | -15 | -31 | 4.2 | i | 2 | -0.3
CO[C@H]1CN(C)C(=O)c2ccc(NS(C)(=O)=O)cc2OC[C@@H](C)N(S(C)(=O)=O)C[C@@H]1C | . | . | . | 2 | 5 | 0.0 | i | . | -5.0
Nc1c(-c2ccc(Cl)cc2)cnn1-c1cccc(C(F)(F)F)c1 | 0.66 | 0.0 | ? | . | . | . | . | -4 | .
CCC1CCCCN1Cc1ccc(OC)c(C)c1C (centres undefined) | 0.72 | -2.3 | 3% | . | . | . | . | -3 | .
Cc1cccc2c1-c1sc(C(=O)Nc3nccs3)cc1CO2 | 0.77 | 9.6 | -2% | -14 | -6 | 4.8 | i | 3 | 14
C[C@@H]1CN([C@@H](C)CO)C(=O)c2cc(/C=C/c3ccccc3)cnc2O[C@H]1CN(C)Cc1cccc(C(=O)O)c1 | . | . | . | -1 | 4 | -0.8 | i | . | 1.1
Cc1cc(C(=O)N/N=C2\CCCC(C)C2)n[nH]1 (centres undefined) | . | -0.3 | 18% | 1 | -2 | -0.4 | i | -7 | 7.5
CC(=O)Nc1ccc(SCc2csc(C)n2)cc1 | 0.68 | 2.5 | . | 4 | 12 | -0.1 | i | 99* | 1.9
CCNC(=O)[C@H]1[C@H](CO)[C@H]2Cn3c(ccc(-c4ccccc4F)c3=O)[C@@H]1N2Cc1cccnc1 | . | . | . | -1 | -2 | 0.3 | i | . | -1.1
Cc1ccc(C(=O)NC2CCN(C(=O)Nc3ccc(F)cc3)CC2)cc1 | 0.7 | -2.3 | . | 9 | 9 | -1.5 | i | -12 | 0.2
CCOC(=O)CN(Cc1sccc1C)C(=O)Nc1ccc(OC)cc1OC | 0.68 | -2.9 | . | . | . | . | . | -7 | .
O=C(C[C@H]1C[C@@H]2c3cc(NS(=O)(=O)c4ccc(F)cc4)ccc3O[C@@H]2[C@@H](CO)O1)NCc1cc(F)ccc1F | . | . | . | -14 | -38 | 8.2 | i | . | 1.9
CCOC(=O)c1ccccc1NC(=O)COC(=O)CN1C(=O)NC2(CCCC2)C1=O | . | 5.1 | -13% | -32* | -24* | -2.6* | i | -11 | -2.9
CC(=O)c1ccccc1OCc1ccc(S(=O)(=O)Cc2ccccc2)cc1 | 0.71 | -2.3 | . | -19 | -25 | -1.8 | i | -4 | -5.0
CCOC(=O)C1=C(N)Oc2cc(O)ccc2C1c1ccc(Br)cc1 (centres undefined) | 0.62 | 1.9 | . | 2 | 1 | -4.3 | i | 2 | -8.7
CCC(C)NC(=O)CSc1nnc(-c2cc(OC)c(OC)c(OC)c2)c(-c2cc(OC)c(OC)c(OC)c2)n1 (centres undefined) | 0.66 | 0.7 | 3% | 8 | 7 | 2.9 | i | -5 | 4.1
CCCNC(=O)[C@@H]1[C@@H](CO)[C@@H]2Cn3c(cccc3=O)[C@H]1N2S(=O)(=O)c1ccccc1F | . | . | . | 1 | 4 | -0.8 | i | . | -22
C[C@H]1CN([C@@H](C)CO)C(=O)Cc2cc(NC(=O)CCN3CCOCC3)ccc2O[C@H]1CN(C)C | . | . | . | 4 | -4 | -0.4 | i | . | -2.8
CCOC(=O)CC1(NC(=O)C2CCC(=O)N(C3CC3)C2)CCCCC1 (centres undefined) | 0.64 | -4.9 | . | -1 | -1 | 0.4 | i | 22 | 11
Cc1ccc([N+](=O)[O-])cc1NC(=O)c1ccc(C(C)(C)C)cc1 | 0.73 | -3.5 | 3% | 8 | 6 | 1.1 | i | -10 | -38
C/C=C/c1ccc2c(c1)O[C@H](CN(C)C(=O)CN1CCOCC1)[C@@H](C)CN([C@@H](C)CO)S2(=O)=O | . | . | . | 1 | 0 | -3.3 | i | . | 0.5
CCn1c2c(n(C(C)=O)c1=O)C=C(C(=O)N1CCCC1)C(C)C(c1ccccc1)=C2 (centres undefined) | . | . | . | 54 | 12 | 26 | . | . | 1.5
COc1ccccc1NC(=O)c1sc2nc(C)cc(C)c2c1N | 0.73 | -0.6 | . | 7 | 2 | 2.1 | i | . | -1.7
CN(C)CCNc1ncnc2c1sc1nc(N3CCOCC3)c3c(c12)CC(C)(C)SC3 | 0.71 | 8.2 | -10%&19% | . | . | . | . | -2 | .
CC1CC(C)CN(CCCCOc2ccc([N+](=O)[O-])cc2)C1 (centres undefined) | 0.7 | 5.5 | -4% | . | . | . | . | 1 | .
O=C(O)c1ccccc1NS(=O)(=O)c1ccc(NN=Cc2ccc(F)cc2)c([N+](=O)[O-])c1 | 0.66 | -2.6 | -2% | . | . | . | . | 2 | .
CCOc1ccc(NC(=O)Cc2nnc(SCC(=O)N3CCOCC3)n2C)cc1 | 0.73 | 0.7 | . | 4 | 13 | 4.3 | i | -2 | 0.1
COc1ccc(O)c(C=Nc2cc(C)on2)c1 | 0.71 | 1.4 | 2% | . | . | . | . | -31 | .
O=C(N/N=C/c1ccc(N2CCOCC2)cc1)c1cccs1 | . | 2.5 | 4% | -4 | -5 | 0.4 | i | 20 | 2.3
O=C(O)Cc1ccc(OCc2ccc(Cl)nc2)cc1 | 0.67 | -4.2 | 3% | 8 | 2 | -1.8 | i | -7 | -1.8
O=C(NS(=O)(=O)Oc1ccccc1F)OC[C@@H]1CCCN2CCCCC12 (some centres undefined) | 0.68 | -0.7 | . | 3 | 7 | -2.4 | i | . | -2.5
O=C(CSc1nccn(-c2ccc(F)c(Cl)c2)c1=O)NC1CCCC1 | 0.68 | 0.1 | -1% | 8 | 8 | -0.2 | i | . | -2.9

A portion of the library; rates above refer to the full screens.
